Screens: PubChem BioAssay, several laboratories
Mtb hypoxia inh: reduces hypoxia-regulated biosensor signal in M. tuberculosis; 0.1% of 300,000 active; M. tuberculosis hypoxia-regulated fluorescent reporter, fluorescence; fluorescence inhibition, % (no concentration beside the values); AID 1159583;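 active means 35 to 45% if threefold the growth effect, above 45% if 1.5-fold the growth effect; inactive means the rest, general growth blockers included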;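 further: wells of about 50 µL received 100 nL stock; 0% = vehicle wells and 100% = reference inhibitor wells; whole bacteria with a GFP reporter of the hypoxia response; strong numbers were not always called active; many hits fall short of the cut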
Bead autofluor: counter-screen for toxin protease inhibitors: compound fluorescence; compound autofluorescence counterscreen, microsphere flow cytometry; active compounds read high; fluorescence intensity (no concentration beside the values); 3.1% of 360,000 active;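 active means at least 3 SD above the mean of all compounds, about 16000 in these data; inconclusive means too few beads counted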;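 further: 100 nL of 1 mM stock went into each well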
BJeLR lethal: kills HRASV12-expressing BJeLR cells | BJeLR (HRASV12) viability, CellTiter-Glo ATP luminescence, 48 h; reference of the scale not given here | inhibition, % (test concentration not listed) | 0.17% of 300,000 active | AID 1554;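 active means replicate mean above 50%; inconclusive means above 50% but judged a plate artefact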;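 further: 50 nL library stock added to about 25 µL; numbers are from one replicate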
Sa ugtP lethal: compounds lethal to S. aureus RN4220 ugtP deletion mutant; 0.54% of 330,000 active; OD600 growth, 16 h; some inactives read as strong as hits; growth inhibition, % (no concentration beside the values);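 active means z-score under -3 and OD600 up to 0.15 on both plates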;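 further: plate controls were untreated wells for no effect and antibiotic for full effect; wells of about 80 µL received 100 nL stock; the first replicate is given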
PrP UTR inh: suppresses PrP 5' UTR mRNA reporter expression | cell-based PrP 5' UTR mRNA reporter, plate reader | inhibition, % (concentration not given with the values) | 0.35% of 340,000 active | AID 488862;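 active means every replicate at 50% or more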;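 further: 0 = median of the neutral control wells; tested in H4 reporter cells; numbers are from one replicate; inactives centre near -14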
RN4220 kill: S. aureus RN4220 growth inhibition | 0.33% of 330,000 active | inhibition, % (test concentration not listed) | AID 1259311 | OD600, 16 h;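 active means z-score of -3 or lower and OD600 up to 0.18 on both plates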;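 further: plate controls were untreated cells for no effect and reference antibiotic for full effect; stock transfer was 100 nL into about 80 µL; one replicate is shown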
Mtb hypoxia inh growth: also measured in Mtb hypoxia inh; calls as there; growth inhibition, %; measured here: M. tuberculosis growth (absorbance);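 0% = vehicle and 100% = reference antibiotic; read after six days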
An asterisk follows results filed as active; ? = inconclusive; . = no result given.

| item | molecule | Mtb hypoxia inh | Mtb hypoxia inh growth | Bead autofluor | BJeLR lethal | Sa ugtP lethal | PrP UTR inh | RN4220 kill |
| --- | --- | --- | --- | --- | --- | --- | --- | --- |
| 1 | COCCCNCCOCCOc1ccc(C)cc1Br | 10 | 4 | 10357 | -13 | 4 | 8 | 5.1 |
| 2 | O=C(NNS(=O)(=O)c1ccccc1[N+](=O)[O-])c1ccccc1[N+](=O)[O-] | 7 | 14 | 8559 | 0 | 4 | -29 | 4.4 |
| 3 | NS(=O)(=O)c1cc(C(=O)OCC(=O)NNC(=O)c2ccccc2)ccc1Cl | 5 | 0 | ? | 4 | 6 | -12 | 3.7 |
| 4 | COc1ccc(CNc2ccc3c(c2)nc(C)n3C)cc1OC | 18 | 3 | . | 0 | 7 | -12 | 4.5 |
| 5 | Oc1ccc(-c2nc(-c3ccc(O)c(O)c3)cs2)cc1 | 12 | 0 | 8394 | 36 | -18 | 22 | 19 |
| 6 | O=[N+]([O-])c1ccc(N(CC2CO2)S(=O)(=O)c2ccccc2)cc1 (stereo not given) | 13 | 0 | 3295 | 6 | 3 | 10 | 6.2 |
| 7 | CN1CCN(CC(=O)Nc2ccc(OCc3ccccc3)cc2)CC1 | 7 | 9 | . | -6 | -4 | . | -16 |
| 8 | O=C(Nc1ccc(Cl)cc1)OCc1cn(-c2ccccc2)nn1 | 11 | 0 | 4515 | -5 | 4 | -38 | 3.4 |
| 9 | C/C(Cc1ccccc1)=N\NC(=O)CNC(=O)c1ccccc1 | . | . | 2850 | -3 | . | -8 | . |
| 10 | CC(=O)Nc1ccc(S(=O)(=O)NNC(=O)COc2ccc(C)cc2)cc1 | . | . | 2104 | 15 | . | -14 | . |
| 11 | Cc1nn(-c2ccccc2)c(C)c1NC(=O)COC(=O)Cc1ccccc1F | -13 | 3 | . | 0 | -4 | -7 | -2.7 |
| 12 | O=C(O)c1nnn(-c2cc(C(F)(F)F)cc(C(F)(F)F)c2)c1-c1ccccc1 | 9 | -7 | . | -5 | 2 | -21 | 3.8 |
| 13 | O=C(C1CCCN(S(=O)(=O)c2ccccc2)C1)N1CCCCCC1 (stereo not given) | 5 | 10 | 2512 | -4 | 4 | -13 | 2.3 |
| 14 | COc1ccccc1N1CCN(N=Cc2sccc2C)CC1 | 16 | 2 | . | . | 14 | . | 2.7 |
| 15 | O=C(c1ccco1)N1CCN(C(=O)N2CCCC2)CC1 | -5 | -2 | 4036 | 15 | 3 | -7 | 0.9 |
| 16 | COc1ccc(N(CC(=O)Nc2ccc3c(c2)OCO3)S(=O)(=O)c2ccc(F)cc2)cc1 | 11 | 4 | 1954 | -20 | -4 | -20 | 0.6 |
| 17 | CCN(CC)c1ccc(C(=C2C=CC(=[N+](CC)CC)C=C2)c2ccc(S(=O)(=O)O)cc2S(=O)(=O)[O-])cc1 | 9 | -90 | 4079 | . | -24 | -1 | -29 |
| 18 | COc1ccc(C(NCC(=O)NC(C)c2ccc(Cl)cc2)c2ccccc2)cc1 (stereo not given) | -1 | 0 | 3196 | -7 | -1 | -7 | -4.6 |
| 19 | COc1cccc(NC(=O)N2CCCC(C(=O)NCc3ccc(F)cc3)C2)c1 (stereo not given) | 8 | 6 | 4529 | -9 | -2 | 3 | 2.8 |
| 20 | O=C(COc1ncnc2scc(-c3ccc(F)cc3)c12)NCc1ccco1 | . | . | 2924 | 10 | 5 | -15 | -2.4 |
| 21 | CCN(CC)Cc1cc2ccccc2c2c1COC2 | -16 | -1 | 9066 | 11 | 1 | -14 | 2.6 |
| 22 | COC(=O)/C(=C/Nc1ccc(O)cc1)[N+](=O)[O-] | 9 | 4 | 4125 | 3 | -4 | -25 | 1.9 |
| 23 | Cc1nnc(SCCn2c(N3CCCC(C)C3)nc3c2c(=O)n(C)c(=O)n3C)s1 (stereo not given) | 0 | 6 | 6905 | -9 | -6 | -17 | -0.1 |
| 24 | CCN(CC)c1ccc(C=NNC(=O)CNC(=O)c2cccs2)cc1 | 14 | 10 | . | . | 5 | . | -2.2 |
| 25 | COc1ccc(/C=N/NC(=O)CCc2c(C)n[nH]c2C)cc1OC | . | . | 9459 | 9 | . | -25 | . |
| 26 | CCN(CC(=O)Nc1ccc(N2CCOCC2)cc1)CC(=O)NC(C)(C)C | 18 | 4 | 2218 | 0 | 4 | -3 | 0.9 |
| 27 | Cc1ccc(NC(=O)CN(C)C(=O)COC(=O)CNS(=O)(=O)c2ccc(Br)cc2Cl)cc1 | 4 | 11 | 5387 | -6 | -1 | -8 | 1.5 |
| 28 | O=C(NC1(C(F)(F)F)NC(=O)N(Cc2ccco2)C1=O)c1cccnc1 (stereo not given) | . | . | 4592 | 2 | 6 | 10 | -2.9 |
| 29 | O=C(CN1CCCCC1)Nc1cccc([N+](=O)[O-])c1 | . | . | 3333 | -10 | 2 | -12 | 2.0 |
| 30 | COc1ccccc1OCCC(=O)OCC(=O)c1c(N)n(C)c(=O)n(C)c1=O | -6 | 4 | 3259 | 0 | -3 | 9 | 2.7 |
| 31 | C=CCOc1ccc(C2C(C(=O)c3ccco3)=C(O)C(=O)N2c2nnc(C)s2)cc1 (stereo not given) | 5 | 1 | 4386 | 6 | 4 | -46 | 1.7 |
| 32 | CCOc1ccc(C(CCc2ccccc2)NC(=O)c2ccc(OC)c(OC)c2)cc1OCC (stereo not given) | 9 | 7 | 8051 | -1 | 17 | . | 6.5 |
| 33 | CS/C(N)=N/N=C/c1cc(Br)cc(Br)c1O | . | . | 3798 | 8 | . | -21 | . |
| 34 | O=C(Cc1ccc(F)cc1)OCN1C(=O)c2ccccc2C1=O | 7 | 23 | 5370 | 3 | -1 | -11 | -0.5 |
| 35 | COc1ccc(S(=O)(=O)N2CCOCC2)cc1NC(=O)c1ccc(OCC(C)C)c(OC)c1 | 2 | -2 | 4344 | . | -9 | . | -4.7 |
| 36 | O=C(NN=C/C(Cl)=C/c1ccccc1)c1ccco1 | 7 | -9 | . | . | -2 | . | 0.5 |
| 37 | Cc1ccc(OC(=O)c2ccc3c(=O)n4c(nc3c2)CCC4)cc1 | 13 | 2 | 4950 | . | 0 | -33 | 5.3 |
| 38 | COc1cccc(C(=O)Oc2cc(-c3ccccc3)no2)c1 | . | . | 2577 | -5 | 1 | -17 | 2.2 |
| 39 | Cc1[nH]c(=O)[nH]c(=O)c1S(=O)(=O)N1CCCC(C(=O)NCCc2ccc(Cl)cc2)C1 (stereo not given) | . | . | 2240 | -3 | 1 | -14 | 2.8 |
| 40 | Cc1ccc(S(=O)(=O)NC(CC(=O)NC2CCCC2)c2ccco2)cc1 (stereo not given) | . | . | 5857 | -4 | -2 | -15 | 0.6 |
| 41 | COc1ccc(C(=O)NC2CCN(C(=S)Nc3cc(C)cc(C)c3)CC2)cc1 | 14 | -1 | 2191 | 0 | 10 | -23 | 3.4 |
| 42 | CCc1cc(C(=O)Nc2nnc(C3CC3)s2)sc1C | 4 | 7 | 5962 | . | -7 | -8 | 11 |
| 43 | CCCc1cc2c(cc1NC(=O)c1ccc(C(C)(C)C)cc1)OCO2 | 3 | 7 | 9273 | -11 | 18 | -37 | -1.9 |
| 44 | COc1ccc(C(=NNc2ccccc2C(=O)O)c2ccc(OC)cc2)cc1 | 5 | -4 | 2544 | 8 | 58 | -16 | 44 |
| 45 | COc1ccc(OC)c(NC(=O)NNC(=O)COc2ccc(-c3ccccc3)cc2)c1 | 12 | 2 | 6851 | 4 | -2 | -17 | 4.6 |
| 46 | CCOc1ccc(CCNC(=O)Cn2ncn3nc(-c4ccc(OC)cc4)cc3c2=O)cc1OCC | -6 | -2 | 5108 | 2 | 0 | -36 | 2.2 |
| 47 | CN(C)c1ccc(C=NCCC2(c3ccccc3)CCOC(C)(C)C2)cc1 (stereo not given) | 14 | -2 | 4223 | 5 | 7 | -5 | 4.3 |
| 48 | CC1S/C(=N\N=C\c2cccc([N+](=O)[O-])c2)N(C(C)(C)C)C1=O (stereo not given) | . | . | 4457 | -1 | . | -6 | . |
| 49 | O=C(Nc1ccccc1)N1CCN(C(=O)Nc2ccccc2)CC1 | 5 | -5 | . | 1 | 4 | . | -1.0 |
| 50 | CCCOc1ccc(-c2c(C(=O)NN=Cc3cccnc3)nnn2-c2nonc2N)cc1 | -5 | -1 | . | . | -2 | . | 3.0 |
| 51 | CC(CCc1ccccc1)NC(=O)COc1cc(F)ccc1[N+](=O)[O-] (stereo not given) | -5 | -1 | 4217 | -6 | -2 | -18 | 2.8 |
| 52 | COc1ccc(NC(=O)CSc2sc3c(O)cc(=O)[nH]c3c2C#N)c(OC)c1 | 4 | 7 | 3606 | -4 | -4 | -21 | 4.4 |
| 53 | Cc1ccc(C)c(C(=O)Cn2ncc(Cl)c(Cl)c2=O)c1 | . | . | 2769 | 3 | 7 | -3 | 7.4 |
| 54 | COc1ccccc1CCn1cnc2c3cc(C)ccc3n(C)c2c1=O | 7 | 3 | 4788 | -10 | 14 | 11 | -1.9 |
| 55 | C=CCn1c(N)c(C(=O)NCC2CCCO2)sc1=S (stereo not given) | 4 | 14 | 8855 | 1 | 2 | -16 | -0.2 |
| 56 | CCNC(=O)N(C)C[C@H]1N[C@@](Cc2ccccc2)(C(=O)OC)[C@H]2C(=O)N(C)C(=O)[C@@H]12 | 0 | 1 | 3808 | . | 3 | -33 | 0.2 |
| 57 | CC[C@]12c3[nH]c4ccc(Cl)cc4c3CCN1C(=O)[C@@H](CC(=O)NCCc1ccccn1)C[C@@H]2C(=O)N1CCN(C(=O)c2ccco2)CC1 | 8 | 4 | 2955 | . | 0 | -15 | 2.0 |
| 58 | CC(C)NC(=S)NN=Cc1cccnc1 | 3 | 4 | . | . | 12 | . | 3.8 |
| 59 | c1ccc2oc(SCc3cn4ccsc4n3)nc2c1 | 7 | 3 | 4743 | 1 | 6 | -90 | 6.5 |
| 60 | Cc1cccc(N(CC(=O)Nc2ccc(-c3nc4ccc(C)cc4s3)cc2)S(C)(=O)=O)c1 | 2 | 10 | ? | 6 | -6 | -73 | -14 |

Single records, from the list above. Screens in order: Mtb hypoxia inh	Mtb hypoxia inh growth	Bead autofluor	BJeLR lethal	Sa ugtP lethal	PrP UTR inh	RN4220 kill
Profile of c1ccc2oc(SCc3cn4ccsc4n3)nc2c1 = 7	3	4743	1	6	-90	6.5
Profile of COc1ccc(C(=O)NC2CCN(C(=S)Nc3cc(C)cc(C)c3)CC2)cc1 = 14	-1	2191	0	10	-23	3.4
Profile of COc1ccccc1CCn1cnc2c3cc(C)ccc3n(C)c2c1=O = 7	3	4788	-10	14	11	-1.9
Profile of COc1ccc(OC)c(NC(=O)NNC(=O)COc2ccc(-c3ccccc3)cc2)c1 = 12	2	6851	4	-2	-17	4.6
Profile of C=CCn1c(N)c(C(=O)NCC2CCCO2)sc1=S (stereo not given) = 4	14	8855	1	2	-16	-0.2

The listing continues:
| item | molecule | Mtb hypoxia inh | Mtb hypoxia inh growth | Bead autofluor | BJeLR lethal | Sa ugtP lethal | PrP UTR inh | RN4220 kill |
| --- | --- | --- | --- | --- | --- | --- | --- | --- |
| 61 | CCCN(CC(=O)Nc1ccccc1OC)C(=O)c1ccc(=O)[nH]c1 | 20 | 9 | 3656 | 4 | 7 | -6 | 1.3 |
| 62 | CC(C)=C1C2CCC1C1C(=O)N(NC(=O)COc3ccc(Cl)c(C)c3)C(=O)C21 (stereo not given) | . | . | 3968 | -8 | 4 | -5 | 4.7 |
| 63 | CCC(C)[C@H](NC(=O)OC(C)(C)C)C(=O)NCC1CCC(C(=O)N[C@@H](Cc2ccccc2)C(=O)O)CC1 (stereo not given in full) | -2 | -9 | 2963 | 3 | 0 | 5 | 3.2 |
| 64 | CCOc1ccc(C(=O)/C=C/Nc2ccc(S(=O)(=O)N=C(N)N)cc2)cc1 | . | . | 2037 | 0 | . | -26 | . |
| 65 | CC(c1ccccc1C(=O)O)c1cc(F)cc2ccccc12 (stereo not given) | 16 | 10 | 3873 | . | 17 | . | 1.7 |
| 66 | S=C(NCc1ccc(Cl)cc1)NC1CCCCC1 | 0 | 3 | 2656 | -18 | -16 | -18 | -6.3 |
| 67 | Oc1ccc(-c2nncn2-c2ccccc2)cc1 | -5 | 7 | 4410 | -14 | -8 | -17 | -2.1 |

Only Bead autofluor, for 3 of the compounds above:
| item | SMILES | Bead autofluor |
| --- | --- | --- |
| 54 | COc1ccccc1CCn1cnc2c3cc(C)ccc3n(C)c2c1=O | 4788 |
| 55 | C=CCn1c(N)c(C(=O)NCC2CCCO2)sc1=S (stereo not given) | 8855 |
| 56 | CCNC(=O)N(C)C[C@H]1N[C@@](Cc2ccccc2)(C(=O)OC)[C@H]2C(=O)N(C)C(=O)[C@@H]12 | 3808 |
